Source: PubChem BioAssay
NPYLR7 agonist = mosquito NPYLR7 agonism | HEK293T NPYLR7/Galpha15, GCaMP6s calcium fluorescence | 270,000 tested, 0.15% active | activation, % at 10 µM; in the data active = activation above about 40%;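 also: 0% = vehicle and 100% = reference agonist at the receptor; some compounds past the cut are filed as inactive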
NPYLR7 agonist max-min = further read-out of NPYLR7 agonist, marked with its call; activation, %; measured here: Max-Min RFU normalised activation; some inactives read as strong as hits;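 span of the calcium signal over five minutes; 0% = vehicle and 100% = native peptide agonist; compound fluorescence can raise it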
Starred values were filed as active, the others as inactive. Only part of the results is shown; count on the stated rates, not on these rows.

SMILES	NPYLR7 agonist	NPYLR7 agonist max-min
CCOc1ccc(-c2cn3c(CC(=O)N(C)C4CCCCC4)csc3n2)cc1	-1	-2
O=C1c2c(F)ccc(F)c2C(=O)N1CCCn1cccn1	-4	-12
O=C1C=CC(=O)c2c(O)c(Cl)c(Cl)c(O)c21	-1	-9
CCc1nc2ccc(C(=O)NCCC(C)C)cn2c1N(C)C(=O)Cc1ccccc1	7	13
CCCCN(Cc1cccn1Cc1ccc(Br)cc1)C(=O)CN(CCC(C)C)C(=O)c1ccc(F)cc1	-5	-3
O=C(Nc1ccc(NS(=O)(=O)c2cc(C(F)(F)F)cc(C(F)(F)F)c2)cc1)C1CC1	2	1
CCOc1ccc(-c2ccc(OCCNC(=O)C3CCCCC3)nn2)cc1	-1	-1
CCCCN(C=O)c1c(CC)nc2ccc(C(=O)Nc3cccc(OCC(=O)N(C)C)c3)cn12	-13	-16
COc1ccc(-n2ncc3c2CC(C)(C)CC3NC(=O)Cc2cnc3ncnn3c2)cc1 (configuration not stated)	2	2
Cc1cc(C)nc(SCc2cc(=O)c(OC(=O)c3ccc(Cl)cc3)co2)n1	-15	-12
O=S(=O)(Nc1cccc(Cn2cccn2)c1)c1ccc(Cl)cc1	-1	-4
c1ccc2c(-c3nnc(SCC4CCCO4)n3C3CC3)c[nH]c2c1 (configuration not stated)	13	11
O=C(N[C@@H]1CCCCC1NC(=O)[C@H]1CCCN1S(=O)(=O)Cc1ccccc1)c1ccc(F)cc1 (some centres not stated)	-1	3
COc1ccccc1N1CCN(c2nc(Nc3ccc(C)cc3C)c3nccnc3n2)CC1	3	5
CCN(CC)S(=O)(=O)c1ccc2c(c1)c(=O)c(C#N)c1scc(C)n12	-1	-4
COC(=O)N1CCCC(C(=O)OCC(=O)Nc2ccc(C)cc2)C1 (configuration not stated)	2	8
O=c1c2cnc3ncnn3c2ccn1Cc1ccccn1	3	7
Cc1ccc(S(=O)(=O)NC2CCN(c3ccccc3C(=O)NCCc3cccs3)CC2)cc1	-7	2
N#Cc1cc(F)c(N2CCN(S(N)(=O)=O)CC2)c(F)c1	3	2
COc1cc(/C=C(\C#N)c2nn(CCO)c(N)c2C#N)cc(OC)c1OC	2	-2
COc1ccc(S(=O)(=O)N2CCCCCC2)cc1NC(=O)c1ccnc(Cl)c1	0	6
CCOC(=O)c1cc(C(C)(C)C)n(C2CCN(C(=O)c3cccc(OC(C)=O)c3C)CC2)n1	-7	-9
O=C(c1cccc(Br)c1)N1CCCN(c2nc(C3CCOCC3)nc3c2cnn3-c2ccccc2)CC1	-5	4
O=C(Cn1c(=O)[nH]c2ccccc2c1=O)NCCc1cccs1	-3	-6
Cn1c(O)c(C=NCC(=O)O)c(=O)n(C)c1=O	6	4

The list continues:
SMILES	NPYLR7 agonist	NPYLR7 agonist max-min
C#CCOc1ccccc1CN(C)C(=O)NC1CCSc2ccc(C)cc21 (configuration not stated)	5	4
FC(F)(F)c1ccccc1-n1c(-c2cccnc2)n[nH]c1=S	-19	-23
CN(C)c1cccc(Nc2nccc3c2cc(-c2cccnc2)n3C)c1	-6	-12
O=C(/C=C/c1ccc(N2CCCC2=O)cc1)N1CCN(c2cnccn2)CC1	-7	-10
CN1CCN(C(=O)c2ccc(CC3CCCNC3)cc2)CC1 (configuration not stated)	2	-1
CCC(CC)CS(=O)(=O)NC(=O)c1ccnc(F)c1	7	8
O=S(=O)(c1ccc(F)cc1)N1CCCC(Nc2ccc(F)cc2)C1 (configuration not stated)	-9	2
COc1ccc(C2SCC(=O)N2c2ncn[nH]2)cc1 (configuration not stated)	5	6
CCCc1ncncc1C(=O)N1CCCC(CCc2ccccc2C)C1 (configuration not stated)	-4	-9
CC1(Cc2ccc(F)c(Cl)c2)C(=O)Nc2ccccc21 (configuration not stated)	2	2
COc1ccc(C(=O)Nc2ccc3c(c2)NC(=O)C(C)O3)c(F)c1 (configuration not stated)	0	-3
CCCN(Cc1cc(C)ccc1C)CC(O)Cc1ccccc1 (configuration not stated)	3	10
CCc1nc(NN)c2c(n1)-c1ccccc1CC21CCCCC1	0	20
COCCNc1nc(SC)nc2c1cnn2CCN	-4	-5
COc1ccc(CC(=O)N2CCN(c3nc(Cc4ccc(C)cc4)nc4onc(-c5ccc6ccccc6c5)c34)CC2)cc1	14	20
Cc1ccc(N2CCn3c2nc2c3c(=O)n(CCN3CCOCC3)c(=O)n2C)cc1C	-3	-3
CC(C)(C)c1ccc(S(=O)(=O)c2cnc(SCC(=O)NCCc3ccccc3)[nH]c2=O)cc1	5	-6
CCCCOC(=O)N1CCC(=O)N(CCOC)C[C@H]2CN(C)c3ccccc3[C@@H]21	4	12
CC1(C)Cc2ccccc2C(/C(=N/O)C(=O)c2ccccc2)=N1	-8	-18
COCCOC1CCN(Cc2nc(-c3ccc(C(=O)OC)cc3)oc2C)CC1	25	6
CCOC(=O)c1nc2cc(C)c(C)cc2nc1N1CCN(C(=O)C2CCCCC2)CC1	4	6
CC(C)c1ccc(CN2CCC2(C)C(=O)Nc2cnc3ccccc3c2)cc1 (configuration not stated)	4	1
COc1ccc(-n2nc(-c3ccc(OC)cc3OC)cc2C(=O)N2CCN(c3ccccc3F)CC2)cc1	3	9
O=C(CCN1CCN(Cc2ccc(Cl)s2)CC1)Nc1c(Cl)cccc1Cl	9	5
Cn1nnnc1SCCCc1nc(-c2ccc(Cl)cc2)no1	7	7

A few values from above.
Entry of CC(C)c1ccc(CN2CCC2(C)C(=O)Nc2cnc3ccccc3c2)cc1 (configuration not stated) under NPYLR7 agonist: 4
Entry of COCCOC1CCN(Cc2nc(-c3ccc(C(=O)OC)cc3)oc2C)CC1 under NPYLR7 agonist: 25

Later entries.
SMILES	NPYLR7 agonist	NPYLR7 agonist max-min
COc1ccc(-n2c(=O)[nH]c3c(C(N)=O)nc(-c4ccccc4C)nc32)c(OC)c1	9	1
c1ccc(CCc2nc(-c3ccc4n[nH]nc4c3)n(-c3ccccn3)n2)cc1	-7	-10
Nc1c(Cl)cc(Cl)cc1[N+](=O)[O-]	8	5
CCN(CC)S(=O)(=O)c1cccc(NS(=O)(=O)c2ccc(C)cc2)c1	1	-3
CCC(C(=O)Nc1ccccc1)N1CCN(Cc2ccco2)CC1 (configuration not stated)	0	0
O=C(NCC1CCCO1)C1CCCN(S(=O)(=O)N2CCCC(C(=O)NCC3CCCO3)C2)C1 (configuration not stated)	6	6
CCC(C)c1ccccc1NC(=O)Cn1cnc2sc3c(c2c1=O)CCC(C)C3 (configuration not stated)	2	-2
O=c1c2cc([N+](=O)[O-])cc3cccc(c32)c2nc3cccc4cccc(c43)n12	-2	-12
CCc1sc(C(=O)NNS(=O)(=O)c2cccc(Cl)c2Cl)cc1C	6	4
CCOC(=O)c1c(C)cn2c(=O)c3ccccc3sc12	6	6
COCCCN1C(=O)/C(=C\c2ccco2)SC1=S	-15	-16
Clc1ccc(CN2CCN(Cc3cnc(CC4CCCC4)[nH]3)CC2)cc1	-2	10
CC(=NNP1(=O)C=C(c2ccccc2)OC(c2ccccc2)=C1)c1ccccc1	4	2
Cc1ccc2nc(SCc3c(F)cccc3Cl)nc(=O)n2c1	3	0
COc1cccc(-c2cc(C(=O)NCc3ccccn3)n3nc(-c4ccccc4)cc3n2)c1	3	7
O=C(O)CN1C(=O)/C(=C\c2cc(Cc3ccccc3Cl)ccc2O)SC1=S	-6	-8
CNc1nc(Nc2ccc(C)c(Cl)c2)c2nccnc2n1	3	6
COc1ccc(-c2ccc(=O)n(CCCNC(=O)c3sc(C)nc3C)n2)cc1	-1	-3
CSc1ccc(C2c3[nH]c4ccccc4c3CCN2C(=O)c2sc(C)nc2C)cc1 (configuration not stated)	16	6
O=C(Nc1ccccc1F)c1n[nH]c(C2CC2)c1Cl	-1	-2
Cc1cccn2c(CC(=O)NC(Cn3ccnc3)C(C)C)cnc12 (configuration not stated)	26	9
CCc1cc2c(=O)c(-c3nc4ccccc4s3)coc2cc1O	-12	-18
N#Cc1cc2sc3nnc(-c4ccncc4)n3c2cc1C#N	2	-1
Cc1cc(N2CCC(n3ccnc3)C2)nc(-c2cccnc2)n1 (configuration not stated)	10	3
COC(=O)Cc1cc(=O)n(-c2ccccn2)[nH]1	-4	-5

Next structures:
SMILES	NPYLR7 agonist	NPYLR7 agonist max-min
N#Cc1cc(N2CCN(CC3CCCO3)CC2)nc2ccccc12 (configuration not stated)	0	108
CCOC(=O)c1ccccc1NC(=S)N1CC(=O)N2CCc3cc(C)ccc3C2C1 (configuration not stated)	-2	15
O=C(CC1C(=O)NCCN1Cc1cccc(Oc2ccccc2)c1)NCCc1cnccn1 (configuration not stated)	2	1
Cc1c(C)n2c3c(=O)[nH]c(=O)n(C)c3nc2n1CCCNc1ccc(Br)cc1	-8	-8
O=S(=O)(Cc1ccc(Br)cc1)N1CCC(O)CC1	0	2
Cc1ccc(C(=O)N2C[C@H](N(C)C)C[C@H]2C(=O)O)cc1NC(=O)C(C)(C)C	-2	-4
CCCCc1nc(C(N)=O)c2[nH]c(=O)n(-c3ccc(OC)cc3OC)c2n1	11	6
CCC1c2ccsc2CCN1S(=O)(=O)c1ccccc1Cl (configuration not stated)	1	-5
CCc1nc2ccc(C(=O)NCc3cccs3)cn2c1N(CC)C(=O)CCC1CCCC1	4	4
CCS(=O)(=O)Oc1cccc(CN(Cc2ccc(F)cc2)C(=O)c2ccco2)c1	9	20
O=C(Nc1ccccc1)N[C@H]1C[C@H](C(=O)O)Nc2cc(Cl)cc(Cl)c21	9	0
COc1cccc(S(=O)(=O)N2CCC(c3c[nH]c4ccccc34)CC2)c1	-1	-6
COCC(C)NC(=O)c1cc(-c2cccs2)nc2cc(C)c(C)cc12 (configuration not stated)	-5	-8
O=C(NC1CCS(=O)(=O)C1)c1c[nH]c2c(OC(F)(F)F)cccc2c1=O (configuration not stated)	-1	-1
Cc1noc(C)c1S(=O)(=O)N1CCN(C(=O)COc2ccc(Oc3ccccc3)cc2)CC1	-7	-8
O=C(Cc1cccs1)NCCCN=C1NS(=O)(=O)c2ccccc21	0	-4

Part of the list above in another layout.
Values run as follows: NPYLR7 agonist	NPYLR7 agonist max-min
> CCOC(=O)c1c(C)cn2c(=O)c3ccccc3sc12
    6	6
> COCCCN1C(=O)/C(=C\c2ccco2)SC1=S
    -15	-16
> Clc1ccc(CN2CCN(Cc3cnc(CC4CCCC4)[nH]3)CC2)cc1
    -2	10
> CC(=NNP1(=O)C=C(c2ccccc2)OC(c2ccccc2)=C1)c1ccccc1
    4	2
> Cc1ccc2nc(SCc3c(F)cccc3Cl)nc(=O)n2c1
    3	0
> COc1cccc(-c2cc(C(=O)NCc3ccccn3)n3nc(-c4ccccc4)cc3n2)c1
    3	7
> O=C(O)CN1C(=O)/C(=C\c2cc(Cc3ccccc3Cl)ccc2O)SC1=S
    -6	-8
> CNc1nc(Nc2ccc(C)c(Cl)c2)c2nccnc2n1
    3	6
> COc1ccc(-c2ccc(=O)n(CCCNC(=O)c3sc(C)nc3C)n2)cc1
    -1	-3
> CSc1ccc(C2c3[nH]c4ccccc4c3CCN2C(=O)c2sc(C)nc2C)cc1 (configuration not stated)
    16	6
> O=C(Nc1ccccc1F)c1n[nH]c(C2CC2)c1Cl
    -1	-2
> Cc1cccn2c(CC(=O)NC(Cn3ccnc3)C(C)C)cnc12 (configuration not stated)
    26	9
> CCc1cc2c(=O)c(-c3nc4ccccc4s3)coc2cc1O
    -12	-18
> N#Cc1cc2sc3nnc(-c4ccncc4)n3c2cc1C#N
    2	-1
> Cc1cc(N2CCC(n3ccnc3)C2)nc(-c2cccnc2)n1 (configuration not stated)
    10	3
> COC(=O)Cc1cc(=O)n(-c2ccccn2)[nH]1
    -4	-5
> N#Cc1cc(N2CCN(CC3CCCO3)CC2)nc2ccccc12 (configuration not stated)
    0	108
> CCOC(=O)c1ccccc1NC(=S)N1CC(=O)N2CCc3cc(C)ccc3C2C1 (configuration not stated)
    -2	15
> O=C(CC1C(=O)NCCN1Cc1cccc(Oc2ccccc2)c1)NCCc1cnccn1 (configuration not stated)
    2	1
> Cc1c(C)n2c3c(=O)[nH]c(=O)n(C)c3nc2n1CCCNc1ccc(Br)cc1
    -8	-8
> O=S(=O)(Cc1ccc(Br)cc1)N1CCC(O)CC1
    0	2
> Cc1ccc(C(=O)N2C[C@H](N(C)C)C[C@H]2C(=O)O)cc1NC(=O)C(C)(C)C
    -2	-4
> CCCCc1nc(C(N)=O)c2[nH]c(=O)n(-c3ccc(OC)cc3OC)c2n1
    11	6
> CCC1c2ccsc2CCN1S(=O)(=O)c1ccccc1Cl (configuration not stated)
    1	-5
> CCc1nc2ccc(C(=O)NCc3cccs3)cn2c1N(CC)C(=O)CCC1CCCC1
    4	4
> CCS(=O)(=O)Oc1cccc(CN(Cc2ccc(F)cc2)C(=O)c2ccco2)c1
    9	20
> O=C(Nc1ccccc1)N[C@H]1C[C@H](C(=O)O)Nc2cc(Cl)cc(Cl)c21
    9	0
> COc1cccc(S(=O)(=O)N2CCC(c3c[nH]c4ccccc34)CC2)c1
    -1	-6
> COCC(C)NC(=O)c1cc(-c2cccs2)nc2cc(C)c(C)cc12 (configuration not stated)
    -5	-8
